2A StopGo – lowers the luciferase signal of an FMDV 2A StopGo reporter. hit rate 1.2% among 410,000. Potency, µM (titrated, usually from 57.9 µM), for inactives: top-dose signal change, negative = less light. AID 1159524. human cells with a luciferase reporter of 2A StopGo recoding; control for the full effect not named in the record; active = well fitted falling curve with a large enough effect; inconclusive = small, poorly fitted or top-dose-only effect; inactive = no such curve, though single readings can be large or run the other way; tested in HEK293T cells; further: on the % scale 0 is the no-effect control and ±100 the full control effect; nearly all actives have a fitted effect of over 45% in size; luciferase light after 4 h
SARS PLpro yeast – inhibitors of SARS-CoV papain-like protease in yeast | hit rate 0.19% among 330,000 | Potency, µM (highest dose often 32.9 µM), for inactives: at the highest dose activity, positive = growth rescue | S. cerevisiae expressing SARS-CoV PLpro, growth rescue; control for the full effect not named in the record; active means well fitted rising curve with a large enough effect; inconclusive means small, poorly fitted or top-dose-only effect; inactive means no such curve, though single readings can be large or run the other way; further: 0% is about no effect; nearly all actives have a fitted effect of over 55% in size; growth read by luminescence after 48 h
Lassa entry inh – inhibitors of Lassa virus binding or cell entry; Lassa virus pseudotype entry inhibition, cell reporter; control for the full effect not named in the record; Potency, µM (top dose mostly 37.9 µM), inactives show at the highest dose activity change, negative = inhibition, most hits filed as inhibitors; hit rate 1.2% among 300,000; AID 540256; active means well fitted inhibition curve with a large enough effect; inconclusive means small, poorly fitted or top-dose-only effect, or effect the other way; inactive means flat fitted curve, though single readings scatter; tested in HEK293 cells; further: on the % scale 0 is the no-effect control and ±100 the full control effect; nearly all actives have a fitted effect of over 50% in size; luciferase read-out
NS1 inh – influenza NS1 inhibition; Potency, µM (doses to about 46.1 µM), without a hit: at the top dose activity, positive = more growth; AID 2326; hit rate 0.4% among 270,000; S. cerevisiae slowed by influenza A NS1, growth recovery by OD600; active means well fitted rising curve with a large enough effect; inconclusive means small, poorly fitted or top-dose-only effect; inactive means no such curve, though single readings can be large or run the other way; further: nearly all actives have a fitted effect of over 50% in size
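In this qHTS, NS1 from influenza A is expressed in budding yeast, where it slows growth. Cells are switched from glucose to 2% galactose medium (pH 6.0, -URA), treated with compound, and growth recovery is read at OD600.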
RE007 growth inh – less growth of the S. pombe RE007 Vpr strain. Potency, µM (titrated, usually from 92.2 µM), for inactives: top-dose activity change, negative = less growth. hit rate 0.21% among 360,000. S. pombe RE007 Vpr strain, BacTiter-Glo ATP luminescence, 24 h; control for the full effect not named in the record. AID 651644; active = well fitted falling curve with a large enough effect; inconclusive = small, poorly fitted or top-dose-only effect; inactive = no such curve, though single readings can be large or run the other way;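 further: on the % scale 0 is the no-effect control and ±100 the full control effect; nearly all actives have a fitted effect of over 50% in size; the assay follows cell death caused by Vpr and the record does not say whether a fall means rescue or toxicity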
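Fission yeast RE007 carrying one integrated HIV-1 vpr copy, seeded at OD 0.01 in PMG+AL medium with 23 nL pinned compound. Grown 24 h at 30 degrees; viability read by BacTiter-Glo luminescence after 5 min.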
Cruzain inh noDet – cruzain (T. cruzi) inhibition without detergent; P25779; purified cruzain, Z-FR-AMC fluorescence, no detergent; Potency, µM, for the others: max response, negative = inhibition, actives largely listed as inhibitors; hit rate 2.3% among 200,000;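 further: plate controls were enzyme without inhibitor for no effect and buffer without enzyme for full effect; nearly all actives have a fitted effect of over 40% in size; top concentration of the series not given in the record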
Target sequence (P25779 123-467 limits assumed): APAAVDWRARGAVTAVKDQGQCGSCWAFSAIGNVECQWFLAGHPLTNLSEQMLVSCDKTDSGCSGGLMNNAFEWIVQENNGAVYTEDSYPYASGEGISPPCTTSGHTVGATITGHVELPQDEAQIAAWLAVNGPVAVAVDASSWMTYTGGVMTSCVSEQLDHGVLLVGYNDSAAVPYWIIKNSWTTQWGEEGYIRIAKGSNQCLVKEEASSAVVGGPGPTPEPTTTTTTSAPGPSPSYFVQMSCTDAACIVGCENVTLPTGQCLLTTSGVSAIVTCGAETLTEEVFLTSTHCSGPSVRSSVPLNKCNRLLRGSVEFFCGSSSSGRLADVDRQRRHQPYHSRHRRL
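Purified cruzain at 1.5 nM, pre-incubated 15 min with compound at room temperature in 100 mM sodium acetate pH 5.5, 5 mM DTT, 0.00005% Triton X-100. Reaction started with 2 uM Z-FR-AMC; AMC fluorescence increase over 60 s gives rate.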
MARV entry inh – Marburg virus entry inhibition. hit rate 1.8% among 300,000. Potency, µM (titrated, usually from 37.8 µM), for the others: at the top dose activity change, negative = inhibition, hits mostly inhibitors. Marburg virus pseudotyped entry inhibition, cell reporter; control for the full effect not named in the record; about a third of the inactives were read at about 46 µM; active = well fitted inhibition curve with a large enough effect; inconclusive = small, poorly fitted or top-dose-only effect, or effect the other way; inactive = flat fitted curve, though single readings scatter; tested in HEK293 cells; about a fifth of its hits are not listed in these tables; further: on the % scale 0 is the no-effect control and ±100 the full control effect; luciferase read-out
Cruzain Triton – blocks cruzain activity in presence of Triton detergent; purified cruzain, Z-FR-AMC fluorescence, 0.01% Triton; AID 1478; Potency, µM, without a hit: max response, negative = inhibition, actives largely listed as inhibitors; hit rate 0.43% among 200,000;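 further: plate controls were neutral wells for no effect and buffer without enzyme for full effect; nearly all actives have a fitted effect of over 40% in size; top concentration of the series not given in the record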
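Detergent-containing arm of a paired screen for aggregation-based inhibition: 0.01% Triton X-100 present. Cruzain at 1.5 nM cleaved 2 uM Z-FR-AMC at pH 5.5 with 5 mM DTT; AMC fluorescence gain over 60 s measured activity.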
The depositor's hits bear a star; ? = inconclusive; / = no result given; & = joins results of further samples; [ ] = dose if it differs, or a comment. Unless noted, the call rests on the fitted dose curve; in most records, active means well fitted curve in the direction sought with a large enough effect; inconclusive means small, poorly fitted or top-dose-only effect, or another doubt; inactive means no such curve, though single readings can be large; an effect the other way counts as inactive or inconclusive. Potency means the concentration at half of the fitted maximal effect.

SMILES	2A StopGo	SARS PLpro yeast	Lassa entry inh	NS1 inh	RE007 growth inh	Cruzain inh noDet	MARV entry inh	Cruzain Triton
Cc1ccc(-n2nc3c(=O)n(CC(=O)c4ccc(F)cc4)nc(C)c3c2C)cc1	25.1µM*	?	1.6%	-3.4%	35.5%	-4.6%	27.7%	-2.9%
Cc1ccc(C)c(OCCC(=O)OCC(=O)Nc2ccc(C)c(S(=O)(=O)N3CCCCC3)c2)c1	4.0%	-8.9%	2.6%	/	-4.4%	/	-8.1%	/
CC(C)(C)c1ccc(C(=O)NNC(=S)NCC2CCCO2)cc1 (stereo not given)	0.0%	26.3%	-2.5%	0.2%	13.5%	14.1%	21.4%	3.1%
COc1ccc(N2CCN(C(=O)C3CC(O)CN3S(=O)(=O)c3ccc([N+](=O)[O-])cc3)CC2)cc1 (stereo not given)	-10.3%	-9.0%	-1.8%	5.2%	-2.5%	?	11.8%	-0.7%
Cc1ccc(-n2c(Cc3cccn3C)nnc2SCC(=O)NC2CCCCC2)cc1	20.6%	1.1%	0.5%	-5.3%	-1.2%	4.8%	-30.0%	0.1%
COC(=O)CC1(CC(=O)OC)C(=O)NC(=O)NC1=O	2.7%	-7.1%	8.6%	-1.4%	-3.8%	-0.3%	?	4.4%
COc1ccc(NC(=O)c2oc3ccccc3c2NC(=O)C2CC2)cc1OC	0.0%	-1.6%	2.1%	-12.7%	5.3%	/	-26.3%	/
Cc1cc(Br)ccc1Nc1nc(N)nc(N)c1N=O	-24.0%	/	-7.5%[46.1 µM]	/	-0.1%	/	?	/
O=C(O)C1C2C=CC(C2)C1C(=O)NCc1ccoc1 (stereo not given)	28.2%	2.9%	11.8%	2.9%	5.4%	-0.5%	?	0.8%
COc1ccc(NC(=O)c2nc[nH]c2C(=O)N[C@H](C)c2ccccc2)cc1	5.7%	-2.2%	/	-36.1%	-2.0%	/	/	/
CCC(C)c1ccccc1N1CC(C(=O)NCCC2=CCCCC2)CC1=O (stereo not given)	3.4%	0.0%	?	/	?	/	-26.6%	/
COC(=O)COc1cccc2c(=O)n(CC(=O)N3CCCc4ccccc43)ccc12	-12.9%	-2.1%	/	-10.0%	6.4%	3.0%	/	-2.5%
COc1ccc(C2CC(=O)N(CC(=O)Nc3cc(C)ccc3C)c3ccccc3S2)cc1 (stereo not given)	-5.8%	/	/	/	/	1.6%	4.4%[46.1 µM]	-1.0%
Clc1ccc(-c2nnc(CSc3nnc(-c4cccs4)n3Cc3ccccc3)o2)cc1	?	-15.7%	?	-6.4%	8.2%	3.8%	?	-5.6%
S=C(NCCc1ccccc1)N1CCOCC1	83.7%[activator]	0.9%	25.6%	1.6%	0.6%	/	-0.4%	/
Clc1ccc(-c2cn3c(n2)SCC3)cc1	9.3%	-3.8%	12.2%	/	-21.9%	/	-9.5%[46.1 µM]	/
COc1cc2c(cc1OC)CN(C(=O)COc1ccccc1C#N)CC2	17.1%	-1.9%	-5.3%[46.1 µM]	2.7%	5.4%	/	-26.0%[46.1 µM]	/
C=CCNC(=O)C1CC=CCC1C(=O)O (stereo not given)	-3.7%	5.2%	-16.5%	4.7%	0.9%	-4.2%	?	4.0%
CON(C)S(=O)(=O)c1cccc(C(=O)Oc2ccc(N(C)S(=O)(=O)c3ccccc3)cc2)c1	3.8%	-1.3%	7.0%	23.4%	6.1%	/	1.2%	/
O=C(C1CC(=O)N(C2CCCC2)C1)N1CCC(Cc2ccccc2)CC1 (stereo not given)	/	-11.2%	0.7%	-0.2%	1.3%	2.6%	-1.3%	0.4%
COC(=O)/C=C\C(=O)Nc1cccc([N+](=O)[O-])c1	?	-109.3%	0.8%	-28.7%	7.94µM*	-1.9%	?	-0.4%
COc1ccc(C2Nc3ccccc3NC3=C2C(=O)CC(C)(C)C3)c(OC)c1OC (stereo not given)	-4.5%	2.0%	-15.6%	5.8%	-8.0%	/	-18.4%	/
Cn1c(=O)c(-c2ccccc2)nc2ccccc21	37.4%[activator]	-25.3%	-8.1%	-3.3%	-22.8%	1.8%	23.8%	-6.9%
Cn1c(/C(C#N)=C(\O)c2ccc(Cl)s2)nc2ccccc21	56.6%[activator]	2.5%	/	-2.6%	-10.6%	/	/	/
O=C1CC(c2ccc(F)cc2)SC(N(c2ccccc2)c2ccccc2)=N1 (stereo not given)	0.0%	-18.8%	?	2.8%	41.8%	8.5%	-4.1%	-4.6%
O=c1cc(CO)occ1OCc1ccccc1	0.0%	8.4%	?	-3.8%	4.2%	2.2%	-3.8%	3.7%
COc1ccc(-c2csc(NC(=O)CSCC(=O)Nc3cc(C)on3)n2)cc1	-4.9%	-1.2%	-2.3%	/	1.2%	/	?	/
CC(C)Oc1ccc(CCC(=O)NNC(=S)NCc2ccccc2)cc1	-7.7%	0.2%	/	3.5%	5.7%	/	/	/
Oc1c(C=C2N=c3ccccc3=N2)sc(=S)n1-c1ccc(F)cc1	?	4.5%&6.7%	?	-8.4%&4.0%	15.1%	20µM*	-5.1%	-6.4%&1.5%
CC(=O)N1CCCC1c1nc2ccccc2n1Cc1ccccc1Cl (stereo not given)	-7.7%	/	1.5%[46.1 µM]	/	/	5.4%	-1.0%[46.1 µM]	-6.1%
COc1cc(NC(=O)c2ccc(Br)o2)ccc1NC(=O)C(C)C	26.1%	8.2%	12.9%	-15.5%	-9.1%	1.8%	17.1%	2.2%
CCOC(=O)/C(C#N)=C/c1cn(CCOc2ccccc2)c2ccccc12	0.6%	22.7%	8.9%	3.6%	18.4%	-15.2%	?	-5.9%
CCN(CCn1cccn1)C(=O)CC1C(=O)NCCN1Cc1cccc(OC)c1OC (stereo not given)	17.4%	0.3%	/	1.8%	-12.2%	/	/	/
Cc1ccccc1NC(=O)NC1(C(=O)NCCCN2CCOCC2)CCCCC1	-3.4%	7.7%	2.0%	6.6%	20.3%	-16.5%	7.3%	1.8%
O=C(C1CCCN(S(=O)(=O)c2ccccc2)C1)N1CCN(c2ccccc2)CC1 (stereo not given)	?	8.0%	-28.2%	-1.5%	-9.6%	/	-25.0%	/
COc1ccc(CCN2C(=O)c3cccc4cccc(c34)C2=O)cc1OC	-20.5%	1.5%	16.7%	3.8%	-15.6%	7.7%	25.5%	-3.5%
CC(C)C(=O)N1CCN(c2ccc(NC(=O)c3ccc([N+](=O)[O-])o3)cc2)CC1	-21.4%	-2.8%	-17.3%	-1.5%	-24.6%	/	20.9%[46.1 µM]	/
COC(=O)c1ccc(C2C(C(=O)c3ccc(C)o3)=C(O)C(=O)N2c2cc(C)on2)cc1 (stereo not given)	-10.4%	-0.8%	/	11.8%	2.9%	/	/	/
COc1c2occc2c(OC)c2c(=O)cc(C(F)(F)F)oc12	-12.1%	-4.3%	-11.1%	-4.1%	-1.0%	14.5%	0.5%[46.1 µM]	3.5%
O=C1CSC(c2ccc(F)cc2)N1c1nnc(C23CC4CC(CC(C4)C2)C3)s1 (stereo not given)	/	-6.4%	/	2.3%	/	?	-1.6%	3.7%
CC(C)(C)C(=O)NN=C1CCC(c2ccccc2)CC1 (stereo not given)	-7.5%	0.3%	/	?	-1.5%	/	/	/
CCOP(=O)(OCC)C(CC)N1CCOCC1 (stereo not given)	-10.5%	-7.4%	21.7%	-1.2%	-14.0%	8.7%	21.4%[46.1 µM]	0.7%
CN(C(=O)COC(=O)CN1C(=O)C2CC=CCC2C1=O)c1ccccc1 (stereo not given)	-13.6%	-4.9%	2.9%	/	-2.1%	/	19.5%	/
Cc1n[nH]c(C)c1CCN	-1.1%	-1.6%	1.0%	-6.9%	9.2%	4.3%	-7.4%	5.5%
COc1ccc(Cn2nnc3c(=O)[nH]c(C(=O)NCCc4ccc(F)cc4)nc32)cc1OC	3.7%	1.5%	/	-13.7%	10.4%	?	7.4%	0.3%
O=C(O)c1ccccc1C(=O)N1CCN(c2ncccn2)CC1	-7.0%	0.7%	1.8%[46.1 µM]	8.7%	1.3%	/	-2.3%[46.1 µM]	/
Cc1ccc(-n2c(SCC(=O)Nc3cc(C)on3)nc3ccccc3c2=O)cc1	3.1%	10.7%	2.2%	0.8%	12.5%	3.4%	?	-0.9%
Cc1ccccc1-c1nc(SCc2cccnc2)c2c(=O)n(C)c(=O)n(C)c2n1	-2.9%	0.4%	/	/	?	/	-0.4%[46.1 µM]	/
CCC1CCCCN1CCCNC(=O)c1cc2c(Cl)nc3ccc(C)cc3c2s1 (stereo not given)	-19.9%	/	?	/	/	-8.0%	?	-0.8%
CCC(C)NC(=O)N[C@@H](CCSC)C(=O)OC (stereo not given in full)	5.8%	-2.6%	-11.0%	0.1%	-3.1%	-6.8%	15.1%	2.9%
Cc1cc(-c2ccccc2)nc(Oc2ccc(C(C)(C)C)cc2)c1S(C)(=O)=O	0.0%	-5.9%	?	21.7%	-8.4%	-2.6%	?	-5.0%
COc1ccc(N2CCN(CCNC(=O)Nc3ccc(Cl)cc3)CC2)cc1	-25.7%	6.2%	8.2%	-2.2%	1.3%	-1.3%	-22.9%	-13.3%
O=C(OCc1ccc(F)cc1)c1cc2ccccc2cc1O	0.0%	-4.7%	/	-13.0%	-8.4%	/	/	/
COc1ccc(N2CCN(CCCn3c(=S)[nH]c4ncccc4c3=O)CC2)cc1	18.4%	13.5%	?	13.1%	9.6%	-18.5%	4.11µM*	2.8%
CC(C)OC(=O)c1ccccc1C(=O)c1ccc(N)c([N+](=O)[O-])c1	0.7%	-0.3%	5.2%[46.1 µM]	1.8%	-5.2%	/	-6.0%[46.1 µM]	/
COc1ccc(C(C)=O)cc1COC(=O)c1ccc2ccccc2n1	7.9%	0.0%	3.5%	/	-9.4%	/	12.1%[46.1 µM]	/
O=C(NCc1ccccc1Cl)C1CCN(S(=O)(=O)c2cccc3nonc23)CC1	-5.5%	-2.2%	-1.8%	-0.9%	18.0%	/	-2.2%[46.1 µM]	/

Screening results (PubChem)
